Source: PubChem BioAssay (ICCB-Longwood Screening Facility, Harvard Medical School)
BasE inh = blocks the Acinetobacter baumannii siderophore enzyme BasE; purified BasE, fluorescence polarization binding displacement; inhibition, % (concentration not given with the values); actives 0.1% (n = 84,000); AID 485350;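 active = both replicates above 25% with normal brightness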;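 note: 0% = negative plate control signal and 100% = positive plate control signal; stock transfer was 100 nL into about 30 µL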
KSHV LANA nucl = LANA-nucleosome interaction inhibition. FITC-LANA1-23 / chicken nucleosome fluorescence polarization; stronger effect = lower value. actives 0.3% (n = 51,000). z-score (concentration not given with the values). AID 720717;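 active = both repeat wells score below -2 in polarization z-score versus plate sample wells, excluding overly bright wells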;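 note: 100 nL library stock added to about 30 µL; numbers are from one replicate; some results filed as inactive read as strong as hits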
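test system = FITC-LANA peptide and chicken nucleosomes | amount = 240 nM purified chicken nucleosomes (480 nM peptide binding sites), final | reagent = 50 nM FITC-LANA1-23 probe | medium = TEN-BT buffer, pH 7.5 | doses = single compound addition by pin transfer, 100 nL per well | timing = 10–45 min, room temperature | detection = fluorescence polarization | repeats = duplicate plates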
Starred values were filed as active, the others as inactive; . = not tested or not shown; & = joins results of further samples; ! = not active in a repeat. A portion of the library; rates above refer to the full screens.

Order of results: BasE inh	KSHV LANA nucl
COc1ccc(N(C)C(=O)Cc2c(C(=O)O)n(C)c3ccccc23)c(OC)c1
→ 0.0	0.36
OC[C@H]1NC[C@H](O)[C@@H](O)[C@@H]1O
→ -2.6	0.92
CNC(=O)c1c[nH]c2ccc(S(=O)(=O)Nc3cccc(OC)c3)cc2c1=O
→ 0.9	0.088
Cc1cc(-c2ccc(S(=O)(=O)NCCN3CCCC3)s2)on1
→ -5.8	.
Cc1cc(=O)[nH]c(SCC(=O)Nc2ccc(N3CCCC3)cc2)c1C#N
→ 4.5	.
O=C(/C=C/c1cccc(N2C(=O)C3C4C=CC(C4)C3C2=O)c1)NCc1ccco1 (stereo unspecified)
→ -2.5	1
O=C(NCc1ccco1)c1ccc2c(O)c(S(=O)(=O)c3ccccc3)c(=O)[nH]c2c1
→ 5.6	-1.2
O=C1CC(c2ccccc2)c2cc3c(cc2N1)OCCO3 (stereo unspecified)
→ 1.6	-0.037
C[C@H](NC(=O)c1ccco1)C(=O)Nc1cc(Cl)ccc1N1CCCC1
→ 1.9	.
COc1cccc(/C=C2/NC(=O)N(c3ccccc3)C2=O)c1
→ 1.1	.
C(=C\c1ccccc1)/CNCCSc1nnnn1-c1ccccc1
→ -8.2	0.041
N[C@@H](Cc1cc(I)c(Oc2cc(I)c(O)c(I)c2)c(I)c1)C(=O)O
→ -2.9&-1.6	-0.74&0.55&1.6&-1.2
COc1ccc(OC)c(-c2nc(N)sc2N=Nc2cccnc2)c1
→ -1.1	.
O=C(O)c1ccc2c(c1)C(=O)N(C1=NCCS1)C2=O
→ 1.3	-0.49
CCOC(=O)c1c(C)n(-c2ccc(C)cc2)c2ccc(OCC(O)CNCc3ccco3)cc12 (stereo unspecified)
→ -0.7	-0.57
COc1ccc(C(CNC(=O)Nc2ccc(C)cc2)N2CCCC2)cc1 (stereo unspecified)
→ 0.3	.
Cc1cc(NC(=O)c2ccc(Cl)c(Cl)c2)ccc1NC(=O)c1ccco1
→ -0.6	-0.6
C=C(NC(=O)C(=C)NC(=O)c1csc(C2=NC3c4csc(n4)C4NC(=O)c5csc(n5)C(C(C)(O)C(C)O)NC(=O)C5CSC(=N5)C(=CC)NC(=O)C(C(C)O)NC(=O)c5csc(n5)C3(CC2)NC(=O)C(C)NC(=O)C(=C)NC(=O)C(C)NC(=O)C(C(C)CC)NC2C=Cc3c(C(C)O)cc(nc3C2O)C(=O)OC4C)n1)C(N)=O (stereo unspecified)
→ 0.1	-0.17&-0.48
O=C(NCc1ccc2c(c1)OCO2)c1cccnc1
→ -0.8	1.9
CN(C)CCn1c(=O)n(C)c(=O)c2[nH]cnc21
→ 2.2	0.72
O=c1oc2cc(OCc3c(F)cccc3F)ccc2c2c1CCC2
→ 5.8	-0.28
C=CCNCc1ccc(-c2ccc(OC)c(Cl)c2)o1
→ -4.3	-0.064
CC(=O)NCc1ccc(C(=O)COC(=O)c2cc(-c3ccccc3)nn2-c2ccccc2)o1
→ -2.7	.
N#CC(c1ccc(O)cc1)N1CCN(C(C#N)c2ccc(O)cc2)CC1 (stereo unspecified)
→ -0.4	.
CNC(=O)n1cc(C)c(-c2cccs2)n1
→ 0.8	.
Cc1cccc(C)c1NC(=O)CNC(=O)CSc1nnc(-c2cccnc2)n1Cc1ccco1
→ -4.1	.
N#Cc1c2c(c(N3CCOCC3)[nH]c1=S)CCCC2
→ -1.3	0.15
O=C(OCc1c(F)cccc1Cl)c1ccccc1N1CCCC1=O
→ 0.8	.
O=C(CN1C(=O)c2ccccc2C1=O)Oc1ccc(F)cc1
→ 2.7	-0.064
Cc1c(NC(=O)CN2C(=O)c3cccc4cccc2c34)c(=O)n(-c2ccccc2)n1C
→ -0.8	0.75
Cc1ccc(NC(=O)COC(=O)c2ccccc2S(C)=O)cc1C (stereo unspecified)
→ -2.5	.
CCOc1ccc(S(=O)(=O)N2CCN(Cc3ccc4c(c3)OCO4)CC2)c2ccccc12
→ -0.8	-0.69
O=c1oc2ccccc2nc1/C=C(\O)c1cccs1
→ 2.8	-4
O=C(COc1ccccc1)NN=C1CCCCC1
→ -0.2	-0.027
COc1ccc(NCC(O)Cn2nnnc2-c2ccccc2)cc1OC (stereo unspecified)
→ 1.3	0.18
Cc1nc(NCc2ccccc2)ncc1C(=O)O
→ -0.9	0.44
C=C(C)CN1CCN(c2cc(-c3ccccc3)c(C#N)c3nc4ccccc4n23)CC1
→ -3.2	0.21
COc1ccc(CONS(=O)(=O)c2ccc(NC(C)=O)cc2)cc1Cl
→ 1.1	0.59
CCCS(=O)(=O)N1CCN(Cc2ccco2)CC1
→ -2.1	.
O=C(NC1=NCCS1)C12CC3CC(C1)CC(C(=O)NC1=NCCS1)(C3)C2
→ 0.1	-1
Cc1ccc(-n2c(SCC(N)=O)nc(O)c(C)c2=O)cc1
→ 1.4	0.22
Cc1nc2cc(S(=O)(=O)N3CCC(C(=O)NC4CCCCC4C)CC3)ccc2n1C1CCCC1 (stereo unspecified)
→ -3.7	1.9
O=C(O)CC(NCc1ccco1)C(=O)Nc1ccc(Cl)cc1 (stereo unspecified)
→ -1.3	0.96
CSC(=S)N/N=C/c1ccccc1
→ 1.1	.
CCCN(CCC)C(=O)CC(c1ccccc1)c1cc(C)ccc1O (stereo unspecified)
→ 2.4	.
COc1ccc(S(=O)(=O)N(CCc2ccccc2)CC(N)=O)cc1
→ 0.4	-0.93
CCCCc1nnc2sc(NC(=O)COc3ccc(C)c(C)c3)nn12
→ 4.3	-0.032
CCC(CC)c1nnc(NC(=O)c2cccs2)s1
→ -6.8	0.19
Cn1c(CSc2nc(N)cc(N)n2)nnc1SC/C=C/c1ccccc1
→ -0.5	0.35
C=CCNC(=S)N/N=C1\CCc2ccccc21
→ 2.9	.
C/C(=N\NC(=O)c1cc2c3ccccc3n(C)c2s1)c1ccc(OCC(N)=O)cc1
→ -11	.
CC(NC(=O)COc1ccccc1)C(=O)N1CCN(c2ccccc2)CC1 (stereo unspecified)
→ -0.9	.
CSC1=NCCN1C(=O)C1c2ccccc2Oc2ccccc21
→ 0.6	-0.76
CCOc1ccccc1NC(=O)/C(C#N)=c1\s/c(=C\c2ccco2)c(=O)n1-c1c(C)cccc1C
→ 5.3	.
O=C(O)c1ccccc1Cc1cccs1
→ 2.3	-0.36
Cc1nc(=O)c(-c2ccccc2)c(C)n1CCc1cnc[nH]1
→ 0.9	.
COc1cccc(-c2cc(C(=O)N3CCc4ccccc4C3)[nH]n2)c1
→ -0.6	-1.6
O=C1CN(/N=C/c2ccc([N+](=O)[O-])o2)C(=O)N1
→ 0.4&-1.8	-0.25&0.05&-0.67
O=S(=O)(NC1=NCCCN1)c1cc(C(F)(F)F)cc(C(F)(F)F)c1
→ 3.1	.
CCCc1nnc(SCC(=O)NC2CC2)n1CC
→ -1.4	-0.13

Shown as labelled records: part of the list above.
canonical_smiles: N#Cc1c2c(c(N3CCOCC3)[nH]c1=S)CCCC2
- BasE inh: -1.3
- KSHV LANA nucl: 0.15
canonical_smiles: O=C(OCc1c(F)cccc1Cl)c1ccccc1N1CCCC1=O
- BasE inh: 0.8
- KSHV LANA nucl: .
canonical_smiles: O=C(CN1C(=O)c2ccccc2C1=O)Oc1ccc(F)cc1
- BasE inh: 2.7
- KSHV LANA nucl: -0.064

(cont.)
Order of results: BasE inh	KSHV LANA nucl
CC1CCCC(NC(=O)CSc2nc3ccccc3o2)C1C (stereo unspecified)
→ -0.6	.
O=C1c2ccccc2-c2n[nH]c3cccc1c23
→ 8.7&4.8	-2*!
Fc1cccc2c1CNC(=S)N2
→ 0.2	0.18
Cn1c(SCC(=O)Nc2ccccc2)nc2ccccc2c1=O
→ -2.1	-0.095
COCCCn1c(-c2cccs2)csc1=Nc1ccc(S(=O)(=O)N2CCOCC2)cc1
→ 2.2	.
C=CCSc1nc2ccccc2n1CC(=O)Nc1cccc(C#N)c1
→ 0.9	.
COC(=O)C1CC(O)CN1S(=O)(=O)c1ccc(Cl)cc1 (stereo unspecified)
→ 4.7	.
Cc1cc(O)c(Cc2c(O)cc(C)[nH]c2=O)c(=O)[nH]1
→ 0.8	-1.5
COc1ccccc1N1CCN(C(=O)C2CC(=O)N(c3ccccc3)C2)CC1 (stereo unspecified)
→ -1.5	0.97
Cc1c(CC(=O)O)c(=O)oc2cc3occ(-c4ccc(Cl)cc4)c3cc12
→ 0.0	1.3
COc1ccc(CCNC(=O)c2cc3ccccc3s2)cc1OC
→ -0.6	.
Cc1ccc(-c2csc3ncn4nnnc4c23)cc1
→ -1.5	-0.13
O=C(c1cccs1)c1cn(CC(=O)N2CCCCCC2)c2ccccc12
→ -0.2	0.0025
COc1ccc(/C=C(\C#N)C(=O)NCc2ccco2)cc1C
→ 2.4	0.41
O=C1NC(=O)N(c2ccc(Cl)cc2)C(=O)/C1=C/c1ccc(Cl)cc1
→ -2.7	.
CC(=O)Nc1ccc(NC(=O)c2cccc(C(=O)OC(C)C)n2)cc1
→ -0.7	.
COc1ccc(C(F)(F)F)cc1-n1ccc(-c2ccc(C)cc2)nc1=S
→ 1.9	.
CCn1cc(CCC(=O)NC2CCCC2)c2ccccc21
→ 0.9	0.47
CN1C(=O)S/C(=C\C=C\c2ccccc2)C1=O
→ .	0.29
O=S(=O)(c1ccc(NC2CCC(O)CC2)nc1)N1CCCC1 (stereo unspecified)
→ 1.3	.
O=C(CC1CCCCCCCCCCC1)N1CCOCC1
→ -0.2	.
Cc1ccc(-c2nc3cc(NC(=O)COc4ccccc4)ccc3o2)cc1
→ 7.0	-0.18
C(=NCc1ccccc1)c1cn(-c2ccccc2)nc1-c1cc2ccccc2o1
→ -1.8	.
CCN1CCCC1CNC(=O)c1c(C)nn(-c2ccc(F)cc2)c1-n1cccc1 (stereo unspecified)
→ -2.7	-0.48
CC(C)C(NS(=O)(=O)c1ccccc1)C(=O)N1CCCC1 (stereo unspecified)
→ 20	1.2
O=c1ccc(-c2ccco2)nn1Cc1ccc(Cl)c(Cl)c1
→ 0.5	-1.8
COc1ccc(CNC(=O)CSC(=S)N2CCCC2)cc1
→ 0.3	.
CC(=O)N1N=C(c2ccccc2)CC1c1ccccc1 (stereo unspecified)
→ 1.4	0.28
Clc1ccc(N2CCCCC2)nn1
→ 0.0	0.6
COC(=O)c1cc(OC(=O)c2ccc(OC)c(OC)c2)n(C)n1
→ 0.9	-0.45
CN(C(=O)C1CC1)c1ccccc1C(=O)O
→ -1.8	.
Cc1nc2ccccc2nc1C
→ .	-1.1
COc1cccc(NC(=O)N2CCC3(CC2)Oc2ccccc2C(=O)N3Cc2ccccc2F)c1
→ 1.5	0.59
Cc1nn(-c2ncc(C(F)(F)F)cc2Cl)c(C)c1CS(=O)(=O)c1ccccc1
→ .	0.013
CCC(=O)c1ccc(N2CCCC2)c(F)c1
→ -2.5	0.048
O=C(O)C1C2C=CC(C2)C1C(=O)NCc1ccccc1F (stereo unspecified)
→ 0.9	0.3
COc1ccccc1-c1oc2cc(Cl)ccc2c(=O)c1O
→ 2.6	-0.15
Cc1nc(C(F)(F)F)ccc1C(=O)Oc1ccccc1N1CCCCC1
→ 0.0	.
N#Cc1ccccc1NC(=O)CSC1=NCCS1
→ -1.1	1.4
CCN(CC(=O)Nc1cc(C)on1)Cc1nc2ccccc2c(=O)[nH]1
→ 0.0	.
COC(=O)CNC(=O)c1cccnc1Sc1cc(OC)ccc1OC
→ 1.4	.
CN=C1SC(CC(=O)Nc2ccc(OC)c(OC)c2)C(=O)N1/N=C(\C)c1ccc(OCC#N)cc1 (stereo unspecified)
→ 3.7	.
Cc1nn(Cc2ccccc2)c2sc(C(=O)NCc3cccnc3)cc12
→ -1.2	.
COCC(C)NC(N)=S (stereo unspecified)
→ 2.0	.
NC(=O)CN1CCCCCC1=O
→ 0.0	.
COc1ccccc1OCC(=O)NCCO
→ 0.8	-0.63
COc1ccccc1-c1c(C#N)c(C)nc(C)c1C#N
→ .	0.019
COC(=O)C1CCN(C(=O)COc2ccccc2)CC1
→ 3.8	-1.3
Nc1nnc(SCC(O)CO)s1 (stereo unspecified)
→ -0.8	-1.4
COC(=O)c1ccc2occ(C(=O)c3ccc(F)cc3)c2c1
→ -0.3	0.37
Cc1cc(N2CC(C)CC(C)C2)n2c(nc3ccccc32)c1C#N (stereo unspecified)
→ -1.1	-0.86
O=C(NC(=S)Nc1cccc(O)c1)c1ccccc1
→ 3.8	.
O=C(/C=c1/[nH]c(=O)/c(=C/c2ccccc2C(F)(F)F)s1)c1ccco1
→ -1.3	.
O=C(/C=C/c1ccco1)OC1CCOC1=O (stereo unspecified)
→ -4.5	.
CNC(=O)NC(=O)CSc1ncc(C(F)(F)F)cc1Cl
→ 0.1	.
O=C(CN1CCCC1)N1CCN(C(=O)c2ccccc2)C1
→ 1.3	0.32
CCN(CC)S(=O)(=O)c1ccc(/C=C/C(=O)OCC(=O)Nc2cccnc2Cl)cc1
→ 1.6	.
O=C(NC(=O)c1csnn1)Nc1ccc(F)c(Cl)c1
→ 1.4	-1
Cc1cc(C(=O)CN(C)C2CCN(C)CC2)c(C)n1-c1c(C)n(C)n(-c2ccccc2)c1=O
→ 0.8	.

Profiles from above.
Listed for O=C(/C=c1/[nH]c(=O)/c(=C/c2ccccc2C(F)(F)F)s1)c1ccco1 : BasE inh: -1.3; KSHV LANA nucl: .
Listed for N#Cc1ccccc1NC(=O)CSC1=NCCS1 : BasE inh: -1.1; KSHV LANA nucl: 1.4
